Bfl-1 A1 inh: inhibitors of the anti-apoptotic protein A1, read as caspase activation. caspase activation, % (test concentration not listed). MEF A1-2A-BIM cells, Caspase-Glo 3/7 luminescence, 3 h; percent of clofoctol response, vehicle zero. actives 0.066% (n = 330,000). AID 2462;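 active = over half of replicate activation scores above 10%, or exactly half above 10 with the replicate mean above 10; inconclusive = replicate mean below 10 yet half the replicates above 10; inactive = over half of replicates below 10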;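 also: wells of about 30 µL received 50 nL stock; many hits fall short of the cut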
Beta cell apopt: beta cell apoptosis inhibition; INS-1E cytokine-induced death, ATP luminescence, 48 h; percent of positive-control rescue, neutral wells zero; protection from apoptosis, % (test concentration not listed); actives 0.8% (n = 300,000);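 active = all replicates at 75% or more, or half of them and the mean; inconclusive = half reach 75% but not the mean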;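 also: 0% = cytokine-treated negative control wells and 100% = positive control rescue; higher means more ATP so stronger rescue from cytokine killing; wells of about 40 µL received 100 nL stock; the first replicate is given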
Ecoli rRNA inh: inhibits bacterial ribosomal RNA function over humanized ribosomes | E. coli WT GFP vs humanized-ribosome RFP mutants, fluorescence, 24 h; stronger effect = lower value; DMSO median 0, no signal -100 | GFP signal change (wild-type ribosome), % (test concentration not listed) | actives 1.6% (n = 350,000);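 active = significant combined selectivity score with lowered wild-type GFP, culture density cut under 30%, mutant RFP and density less affected; inactive = any of these conditions unmet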; also: one replicate is shown; some compounds called inactive have numbers as strong as hits
Beta2AR agonist: activates human beta-2 adrenergic receptor causing internalization; P07550; Am2.2-beta2AR cells, FAP receptor internalization, flow cytometry; reference of the scale not given here; actives 0.43% (n = 340,000); response, % (concentration not given with the values); AID 504454;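 active = response above a set limit, near 3 SD of response in nonfluorescent compounds, cut at about 42% in these data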;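 also: stock transfer was 100 nL into about 11 µL; a reference agonist was the positive control; negative values mostly stem from fluorescent compounds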
Target sequence (P07550 whole entry, looked up): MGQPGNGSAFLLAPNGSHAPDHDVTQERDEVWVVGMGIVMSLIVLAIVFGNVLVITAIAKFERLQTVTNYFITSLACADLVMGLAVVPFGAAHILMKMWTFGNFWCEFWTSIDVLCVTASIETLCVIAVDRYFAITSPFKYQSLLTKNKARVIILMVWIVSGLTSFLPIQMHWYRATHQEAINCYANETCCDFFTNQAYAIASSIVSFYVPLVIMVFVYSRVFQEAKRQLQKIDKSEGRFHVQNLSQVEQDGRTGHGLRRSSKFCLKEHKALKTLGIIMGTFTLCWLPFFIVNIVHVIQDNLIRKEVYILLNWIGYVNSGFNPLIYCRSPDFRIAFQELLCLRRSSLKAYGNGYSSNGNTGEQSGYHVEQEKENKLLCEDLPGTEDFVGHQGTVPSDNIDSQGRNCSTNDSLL
T cruzi repl: T. cruzi replication inhibition; T. cruzi beta-gal in NIH3T3, luminescence, 90 h; inhibition, % (test concentration not listed); actives 1.4% (n = 300,000);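 active = mean inhibition across valid replicates above about 55%, limit read from the data; inconclusive = mean below that limit but half or more replicates reach it; inactive = mean below it, under half of replicates reach it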;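 also: signal also drops with host cell toxicity which is not excluded here; 0% = plate median of DMSO wells and 100% = zero luminescence signal; higher percent means less beta-gal luminescence so fewer parasites; stock transfer was 50 nL into about 50 µL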
LANA-H2B inh: blocks KSHV LANA binding to histone H2A/H2B; Q9QR71; cell-free LANA-H2A/H2B peptide, fluorescence polarization; inhibition, % (no concentration beside the values); actives 0.6% (n = 320,000); in the data active = inhibition mostly above about 10%, no sharp cut-off; inactive = mostly below about 6.7%;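 also: stock transfer was 7.5 nL into about 10 µL; 0% = median of vehicle wells and 100% = median of positive control wells; one replicate is shown; the record names a cut of 25% in any replicate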
Calb FLC: C. albicans growth modulation with fluconazole. C. albicans CaCi-2 (fluconazole-resistant clinical isolate) + fluconazole, Alamar Blue growth, 48 h. growth inhibition, % (test concentration not listed). actives 0.57% (n = 300,000);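 active = most replicates above 75%; inconclusive = exactly half above 75%; inactive = most below 75%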;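 also: all wells also contain fluconazole at 8 µg/ml as a sub-toxic cotreatment; 0% = median of DMSO wells and 100% = median of geldanamycin control wells; wells of about 8 µL received 7.5 nL stock; the first replicate is given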
ALR inh: human ALR oxidase inhibition via reduced H2O2; purified ALR, DTT oxidation, H2O2 HRP-luminol luminescence; inhibition, % (concentration not given with the values); actives 3.8% (n = 290,000); AID 485317;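 active = mean and each replicate at 75% or more; inconclusive = only one of the two met; inactive = neither met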;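 also: stock transfer was 7.5 nL into about 7.5 µL; 0% = neutral wells and 100% = wells with inactivated enzyme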
Target sequence (P55789 whole entry, looked up): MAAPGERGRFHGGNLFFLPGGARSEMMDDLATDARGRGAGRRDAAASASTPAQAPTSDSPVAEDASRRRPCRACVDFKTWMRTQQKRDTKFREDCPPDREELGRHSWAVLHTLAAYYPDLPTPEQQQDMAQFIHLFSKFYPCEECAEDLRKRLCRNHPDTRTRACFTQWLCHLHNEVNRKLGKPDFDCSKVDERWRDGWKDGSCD
Ecoli rRNA inh OD600: also measured in Ecoli rRNA inh; calls as there; OD600 change, %; measured here: OD600 growth;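 optical density of the mix in the first replicate; 0 = DMSO median and -100 = no signal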
Ecoli rRNA inh RFP: also measured in Ecoli rRNA inh; calls as there; RFP signal change, %; measured here: RFP humanized mutant strains;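 first replicate; 0 = DMSO median and -100 = no signal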
Numbers without * were called inactive; ? = inconclusive; · = no result given; + = active, no number.

Compound	Ecoli rRNA inh RFP	Beta2AR agonist	Calb FLC	ALR inh	T cruzi repl	Ecoli rRNA inh OD600	Beta cell apopt	Bfl-1 A1 inh	LANA-H2B inh	Ecoli rRNA inh
COc1cccc(N2C(=O)C3CCCN3C2c2ccc(N(C)C)cc2)c1 (stereo unspecified)	-0.3	3.5	-0.6	95.5*	2.3	10.8	-1.9	1.4	2.9	2.7
Cn1c(=O)c2ncn(CC(=O)NC3CCCCCC3)c2n(C)c1=O	·	-6.7	-9.3	2.8	2.5	·	·	1.3	-2.4	·
CC(=O)Nc1ccc(NC(=O)C(C)OC(=O)/C(C#N)=C/c2ccc(N(C)C)cc2)cc1 (stereo unspecified)	7.8	13.3	-5.1	·	1.3	0.5	5.7	-3.3	·	12.4
CCNc1c(NC(=O)c2ccc3c(c2)OCO3)c(=O)oc2ccccc12	-1.9	6.7	24.5	1.0	-4.8	8.8	-1.6	1.0	8.0	7.7
COc1ccccc1Nc1ccc(N)cc1	-7.2	-0.2	8.7	-66.1	?	0.4	12.7	-0.1	3.0	0.1
CCOC(=O)N1CCN(C(=O)c2ccc3c(c2)N(CC)CCS3)CC1	0.7	1.6	-6.3	46.8	1.8	2.2	-0.4	0.3	2.7	-1.6
C=CCn1c(SCC(=O)Nc2sc(C)c(C)c2C(=O)OCC)nnc1-c1sc(N)nc1C	·	0.8	4.8	43.3	7.5	·	-0.1	0.1	1.7	·
O=C1C2(c3ccccc3)CN(CCO)CC1(c1ccccc1)CN(CCO)C2	·	-10.6	-4.6	0.1	-13.5	·	-11.7	-0.2	3.6	·
Cc1cc(C)c(C)c(S(=O)(=O)Nc2ccccc2C(=O)NN2CCOCC2)c1C	-0.6	1.3	·	2.1	·	-5.2	-7.1	-0.9	1.1	-2.8
NC1=NC(=O)/C(=C\c2ccsc2)S1	6.2	10.3	-17.4	0.9	-14.4	17.3	-10.3	2.2	-0.7	8.8
Cc1cccc(N(C)S(=O)(=O)c2ccc(-c3cnc(C4CC4)o3)cc2)c1	-4.3	23.2	4.0	-17.9	4.3	-45.4	53.8	1.3	2.8	6.7
CCN(CC(=O)Nc1ccc(NC(C)=O)cc1)C(=O)c1sc2nc3n(c(=O)c2c1C)CCC3	0.5	-2.5	·	·	·	7.5	0.8	1.2	3.4	7.0
CCOc1ccc(OCC)c(NC(=O)C2CCN(S(=O)(=O)c3ccc4c(c3)CC(C)N4C(C)=O)CC2)c1 (stereo unspecified)	-2.5	8.8	-2.2	-3.1	14.3	-3.5	-1.0	0.2	-0.9	-3.2
CN1C2C=C3C(C#N)=C(N)C(C#N)(C#N)[C@H](c4c(F)cccc4F)[C@H]3C1CC2 (stereo partly specified)	·	14.5	2.6	3.8	24.0	·	-9.5	1.8	1.0	·
CC1=C/C(=C\c2ccc3c(c2)OCO3)C(=O)S1	·	-0.1	-44.1	3.5	-14.5	·	-3.4	0.7	1.0	·
CCN(CC)c1ccc(NC(=O)c2cccc(C)c2)cc1S(=O)(=O)Nc1ccccc1OC	·	-1.0	0.0	-6.5	27.0	·	3.7	-0.3	4.5	·
O=C1CSC(c2ccccc2F)N1c1cc(Cl)ccc1O (stereo unspecified)	·	-3.7	11.7	-11.0	-11.8	·	-8.2	0.1	3.0	·
COc1ccc2[nH]c(=O)c(-c3nnn(-c4ccc(F)cc4)n3)cc2c1	10.4	3.0	-8.0	·	-15.3	12.2	-8.1	0.6	-1.4	15.0
CSc1ccccc1NC(=O)CN(C)CC(=O)Nc1ccc(Cl)cc1[N+](=O)[O-]	-1.9	-9.8	45.1	-10.2	·	-0.3	-1.1	0.0	3.8	-2.9
c1ccc(NC2=NCCN2CCCC2CCCCC2)cc1	22.1	5.8	·	·	·	-28.7	2.9	0.5	-0.8	-7.2
O=C(Cc1ccc(Cl)cc1)NNC(=S)NC(=O)c1cccnc1	-1.9	-1.2	22.0	56.5	-7.9	4.6	3.0	-0.5	0.7	7.7
O=C1C=CC(=O)C(C2=C3C(=O)N(CCc4ccccc4)CC(=O)N3CCC2)=C1	0.9	·	-18.2	-13.1	?	5.1	-6.1	-0.6	4.1	4.7
COc1cccc(-n2c(SCC(N)=O)nnc2-c2ccco2)c1	0.4	-1.2	-1.0	-18.3	-1.1	2.3	0.7	-2.5	-3.8	-2.1
CC1CCCC(C)N1C(=O)CSc1nnc(C2CCCCC2)o1 (stereo unspecified)	·	1.7	-5.5	-3.2	1.7	·	-6.9	0.7	3.4	·
CNC(=O)COc1coc(CN2CCN(c3ccccc3)CC2)cc1=O	-0.4	-3.7	-4.2	50.9	-21.5	-0.5	·	-0.3	-2.7	-2.2

Entries listed so far with two or more sulfur atoms (2):
Compound	Ecoli rRNA inh RFP	Beta2AR agonist	Calb FLC	ALR inh	T cruzi repl	Ecoli rRNA inh OD600	Beta cell apopt	Bfl-1 A1 inh	LANA-H2B inh	Ecoli rRNA inh
C=CCn1c(SCC(=O)Nc2sc(C)c(C)c2C(=O)OCC)nnc1-c1sc(N)nc1C	·	0.8	4.8	43.3	7.5	·	-0.1	0.1	1.7	·
NC1=NC(=O)/C(=C\c2ccsc2)S1	6.2	10.3	-17.4	0.9	-14.4	17.3	-10.3	2.2	-0.7	8.8

The results go on:
Compound	Ecoli rRNA inh RFP	Beta2AR agonist	Calb FLC	ALR inh	T cruzi repl	Ecoli rRNA inh OD600	Beta cell apopt	Bfl-1 A1 inh	LANA-H2B inh	Ecoli rRNA inh
CCOC(=O)N1CCN(C(=O)c2cc3c(s2)-c2ccc(Cl)cc2S(=O)(=O)C3)CC1	2.9	-3.6	7.6	-10.8	7.2	24.9	4.7	-0.2	4.9	23.0
CCOC(=O)C1(CC2CC2)CCN(C(=O)c2cccnc2C)CC1	1.9	1.3	-23.4	-5.3	-8.9	19.3	1.9	1.4	7.6	24.2
O=C(CSc1nc2nc3c(cc2c(=O)n1-c1ccccc1)CCCC3)Nc1cccc2ccccc12	7.1	-11.6	20.7	-10.6	40.2	8.4	-0.7	1.5	-3.2	18.6
CSc1ccccc1C(=O)Nc1ccc(C)c(C)c1	·	6.5	16.9	-3.9	2.0	·	-3.7	-8.9	1.0	·
O=C(CN1CCCc2ccccc21)Nc1cc(S(=O)(=O)N2CCCC2)ccc1Cl	-0.5	9.3	·	5.8	·	-9.7	7.6	1.0	-2.4	-6.8
COc1ccc(S(=O)(=O)N2CCCCCC2)cc1C(=O)N(C)Cc1ccc(C)cc1	1.0	5.8	5.3	0.5	25.0	-22.4	-0.2	0.6	0.4	-25.9
COc1ccc(N2CCN(C(=O)CCCC(=O)c3ccccc3)CC2)cc1	-0.3	-4.3	3.7	46.6	3.1	-11.2	2.7	-0.4	-2.2	-9.3
CCOCCCn1c(SCC(=O)NC(C)C)nc2ccccc2c1=O	·	-7.1	-2.1	-2.9	-4.5	·	-3.8	0.6	2.3	·
O=C(CNC(=O)[C@@H]1Cc2ccccc2CN1)NC1CCCCC1	-4.6	3.6	3.5	-10.4	-4.3	7.1	-2.7	-0.4	0.3	0.7
O=C(NC(=S)NC1CCCCC1)c1ccc(F)cc1	-12.1	-7.3	-18.8	5.2	5.0	-54.0	0.0	-0.8	-5.8	-40.5
CC(C)N1CCC(N2CCN(Cc3ccc(-c4ccccc4Cl)o3)CC2CCO)CC1 (stereo unspecified)	-0.9	0.9	?	-0.1	46.5	0.0	·	-0.8	-1.3	-0.4
CC(C)C[C@H]1COCCS(=O)(=O)N1Cc1ccccc1F	-4.8	-0.4	-1.7	-3.5	-13.0	-7.0	-2.4	0.8	2.5	-5.5
Cc1[nH]c(=S)[nH]c(=O)c1CCCO	2.8	4.3	1.4	-5.6	-20.1	13.6	-3.3	0.2	17.7*	11.2
COc1ccc(N=C2SC(C(=O)Nc3ccc(F)cc3)CC(=O)N2C)cc1 (stereo unspecified)	-1.9	-2.5	-1.0	12.6	8.7	-9.8	-5.6	0.2	3.1	-6.9
CN(C)CCC(=O)c1ccc(F)cc1	-2.7	-9.3	2.4	18.2	20.2	8.9	-10.1	0.5	1.4	3.3
CSCc1ccc(C(=O)N2CCC(CCC(=O)N(C)Cc3ccccc3)CC2)o1	1.2	31.4	-7.6	-2.4	8.4	-1.4	-5.9	1.1	-3.4	3.2
COC(=O)CNC(=O)CNC(=O)Nc1ccccc1	2.0	2.8	-4.7	-2.8	-16.1	19.0	-3.5	1.1	0.3	13.4
CC[C@]12c3[nH]c4ccccc4c3CCN1C(=O)C(CC(=O)NCC13CC4CC(CC(C4)C1)C3)C[C@@H]2C(=O)N1CCN(C(=O)C2CC2)CC1 (stereo partly specified)	6.1	2.9	·	-4.8	·	3.4	0.3	0.2	+	8.5
COC(=O)c1ccccc1NC(=O)CN(C1CCCCC1)S(C)(=O)=O	·	1.9	1.8	-1.1	17.4	·	-4.7	0.5	-1.6	·
O=C(Nc1nncs1)c1cc2c(s1)CCC2	0.7	1.6	14.6	7.6	-3.2	13.9	-1.8	0.3	2.5	5.4
O=C(Nc1ncnc2c1ncn2C1OC(COC(=O)c2ccccc2)C(F)C1O)c1ccccc1 (stereo unspecified)	·	4.6	-9.5	-2.9	14.5	·	·	0.9	0.9	·
O=C(NC(Cc1ccc(O)cc1)C(=O)O)/C(=C/c1ccccc1)NC(=O)c1ccccc1 (stereo unspecified)	-2.4	4.2	0.1	7.2	-4.1	9.5	0.6	0.2	-5.7	3.9
Cc1cc(NC(=O)COc2ccc3oc4ccccc4c3c2)no1	·	9.6	2.4	-17.9	-1.2	·	-0.1	0.0	4.7	·
COc1ccc(Nc2nnc(-c3ccc(O)cc3)c3ccccc23)cc1C(N)=O	-5.3	2.5	12.3	·	2.4	-47.8	3.0	-0.6	-3.0	-34.9
O=[N+]([O-])c1ccccc1OCCCCN1CCCCC1	·	2.4	-6.5	·	1.3	·	2.0	-0.8	-9.0	·
Cc1ccc(NC(=O)CSc2nnc(-c3n[nH]c4ccccc34)n2-c2ccccc2)c(C)c1	·	-0.6	-2.2	2.4	7.9	·	·	1.1	2.2	·
CC(OC(=O)Cn1cc(C(F)(F)F)ccc1=O)C(=O)N(C)c1ccccc1 (stereo unspecified)	6.5	-5.7	·	-11.9	·	16.6	-1.6	0.8	-1.6	11.0

Part of the list above in a different format.
Results follow in this order: Ecoli rRNA inh RFP	Beta2AR agonist	Calb FLC	ALR inh	T cruzi repl	Ecoli rRNA inh OD600	Beta cell apopt	Bfl-1 A1 inh	LANA-H2B inh	Ecoli rRNA inh
- O=C(NC(Cc1ccc(O)cc1)C(=O)O)/C(=C/c1ccccc1)NC(=O)c1ccccc1 (stereo unspecified)
→ -2.4	4.2	0.1	7.2	-4.1	9.5	0.6	0.2	-5.7	3.9
- Cc1cc(NC(=O)COc2ccc3oc4ccccc4c3c2)no1
→ ·	9.6	2.4	-17.9	-1.2	·	-0.1	0.0	4.7	·
- COc1ccc(Nc2nnc(-c3ccc(O)cc3)c3ccccc23)cc1C(N)=O
→ -5.3	2.5	12.3	·	2.4	-47.8	3.0	-0.6	-3.0	-34.9

This is a subset; count on the stated rates, not on these rows.
